Marburg entry inh = Marburg virus entry inhibition; 300,000 tested, 1.8% active; AID 540276; Potency, µM (series often up to 37.8 µM), without a hit: at the highest dose activity change, negative = inhibition, usual class: inhibitors; Marburg virus pseudotyped entry inhibition, cell reporter; control for the full effect not named in the record; about a third of the inactives were read at about 46 µM; active = well fitted inhibition curve with a large enough effect; inconclusive = small, poorly fitted or top-dose-only effect, or effect the other way; inactive = flat fitted curve, though single readings scatter; tested in HEK293 cells; about a fifth of its hits are not listed in these tables; note: % is set by controls: 0 for no effect and ±100 for the full control effect; luciferase read-out
Cruzain noTriton = cruzain (T. cruzi) inhibition without detergent; P25779; purified cruzain, Z-FR-AMC fluorescence, no detergent; Potency, µM, for inactives: max response, negative = inhibition, hits mostly inhibitors; 200,000 tested, 2.3% active;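 note: plate controls were enzyme without inhibitor for no effect and buffer without enzyme for full effect; nearly all actives have a fitted effect of over 40% in size; top concentration of the series not given in the record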
Target sequence (P25779 123-467 limits assumed): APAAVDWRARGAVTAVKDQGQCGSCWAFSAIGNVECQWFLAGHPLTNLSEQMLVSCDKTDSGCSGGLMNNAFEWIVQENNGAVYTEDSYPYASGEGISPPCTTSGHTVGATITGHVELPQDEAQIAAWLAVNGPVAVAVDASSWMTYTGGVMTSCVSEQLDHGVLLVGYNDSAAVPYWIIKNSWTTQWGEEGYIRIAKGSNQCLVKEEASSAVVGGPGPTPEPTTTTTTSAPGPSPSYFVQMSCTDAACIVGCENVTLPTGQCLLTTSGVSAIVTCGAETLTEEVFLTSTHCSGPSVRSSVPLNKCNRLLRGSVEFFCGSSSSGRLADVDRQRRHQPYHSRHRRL
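Detergent-free condition (0.00005% Triton X-100) in acetate buffer pH 5.5 with DTT. 1.5 nM enzyme and compound were pre-mixed 15 min, then 2 uM Z-FR-AMC substrate added; reaction progress from fluorescence change between first and third reads (60 s).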
NS1 function inh = blocks influenza NS1 protein function; S. cerevisiae slowed by influenza A NS1, growth recovery by OD600; Potency, µM (highest dose often 46.1 µM), without a hit: at the top dose activity, positive = more growth; 270,000 tested, 0.4% active; AID 2326; active means well fitted rising curve with a large enough effect; inconclusive means small, poorly fitted or top-dose-only effect; inactive means no such curve, though single readings can be large or run the other way; note: nearly all actives have a fitted effect of over 50% in size
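S. cerevisiae expressing influenza A NS1, grown in glucose, washed, then diluted 1:100 into pH 6.0 -URA galactose medium with 23 nl compound. Growth recovery read as OD600; NS1-free strain serves as control.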
Cruzain Triton = cruzain (T. cruzi) inhibition with detergent. Potency, µM, for inactives: max response, negative = inhibition, hits mostly inhibitors. purified cruzain, Z-FR-AMC fluorescence, 0.01% Triton. 200,000 tested, 0.43% active;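 note: plate controls were neutral wells for no effect and buffer without enzyme for full effect; nearly all actives have a fitted effect of over 40% in size; top concentration of the series not given in the record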
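Purified cruzain (1.5 nM final) was preincubated with compounds for 15 min at room temperature in 100 mM sodium acetate pH 5.5, 5 mM DTT, 0.01% Triton X-100. Reaction started with 2 uM Z-FR-AMC; AMC fluorescence change over 60 s gave activity.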
2A StopGo = FMDV 2A StopGo reporter, luciferase signal | human cells with a luciferase reporter of 2A StopGo recoding; control for the full effect not named in the record | AID 1159524 | 410,000 tested, 1.2% active | Potency, µM (series often up to 57.9 µM), inactives show at the top dose signal change, negative = less light; active = well fitted falling curve with a large enough effect; inconclusive = small, poorly fitted or top-dose-only effect; inactive = no such curve, though single readings can be large or run the other way; tested in HEK293T cells; note: % is set by controls: 0 for no effect and ±100 for the full control effect; nearly all actives have a fitted effect of over 45% in size; luciferase light after 4 h
SARS PLP yeast = SARS-CoV PLP inhibition in yeast | S. cerevisiae expressing SARS-CoV PLpro, growth rescue; control for the full effect not named in the record | Potency, µM (titrated, usually from 32.9 µM), inactives show top-dose activity, positive = growth rescue | 330,000 tested, 0.19% active | AID 485353; active means well fitted rising curve with a large enough effect; inconclusive means small, poorly fitted or top-dose-only effect; inactive means no such curve, though single readings can be large or run the other way; note: 0% is about no effect; nearly all actives have a fitted effect of over 55% in size; growth read by luminescence after 48 h
RE007 growth inh = less growth of the S. pombe RE007 Vpr strain; 360,000 tested, 0.21% active; S. pombe RE007 Vpr strain, BacTiter-Glo ATP luminescence, 24 h; control for the full effect not named in the record; Potency, µM (top dose mostly 92.2 µM), for inactives: at the highest dose activity change, negative = less growth; active = well fitted falling curve with a large enough effect; inconclusive = small, poorly fitted or top-dose-only effect; inactive = no such curve, though single readings can be large or run the other way;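 note: % is set by controls: 0 for no effect and ±100 for the full control effect; nearly all actives have a fitted effect of over 50% in size; the assay follows cell death caused by Vpr and the record does not say whether a fall means rescue or toxicity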
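Fission yeast RE007 carrying one integrated HIV-1 vpr copy, seeded at OD 0.01 in PMG+AL medium with 23 nL pinned compound. Grown 24 h at 30 degrees; viability read by BacTiter-Glo luminescence after 5 min.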
Lassa entry inh = Lassa virus entry inhibition; Lassa virus pseudotype entry inhibition, cell reporter; control for the full effect not named in the record; Potency, µM (titrated, usually from 37.9 µM), inactives show at the highest dose activity change, negative = inhibition, usual class: inhibitors; 300,000 tested, 1.2% active; AID 540256; active means well fitted inhibition curve with a large enough effect; inconclusive means small, poorly fitted or top-dose-only effect, or effect the other way; inactive means flat fitted curve, though single readings scatter; tested in HEK293 cells; note: % is set by controls: 0 for no effect and ±100 for the full control effect; nearly all actives have a fitted effect of over 50% in size; luciferase read-out
An asterisk follows results filed as active; ? = inconclusive; . = not tested or not shown; & = joins results of further samples; [ ] = remark or other dose. Unless noted, calls come from the whole dose curve; as a rule, active = well fitted curve in the direction sought with a large enough effect; inconclusive = small, poorly fitted or top-dose-only effect, or another doubt; inactive = no such curve, though single readings can be large; an effect the other way counts as inactive or inconclusive. Potency is the fitted concentration of half-maximal effect.

SMILES	Marburg entry inh	Cruzain noTriton	NS1 function inh	Cruzain Triton	2A StopGo	SARS PLP yeast	RE007 growth inh	Lassa entry inh
COc1ccc(-c2nsc3c(N4CCCCC4)ncnc23)cc1	?	2%	-1%	-11%	?	1%	-24%	?
CCOc1cccc(N2C(=O)CC(N3CCN(c4nc5ccccc5s4)CC3)C2=O)c1 (stereo not drawn)	3%	?	6%	-4.7%	?	-6%	0%	-6%
Cc1ccc2oc(=O)cc(CN3CCCCC3)c2c1	?	.	6%	.	6%	-1%	-1%	?
Cc1ccccc1Cn1nc(C)c(NC(=O)c2ccccc2)c1C	-1%	.	.	.	-6%	0%	4%	-14%
O=C(Nc1cccn(Cc2c(Cl)cccc2Cl)c1=O)c1ccccc1Cl	?	?	11%	-5.0%	?	-14%	13%	-6%
CN(CC(=O)Nc1cccc(F)c1)C(=O)c1ccc(N2CCCCCC2)c([N+](=O)[O-])c1	?	.	.	.	-10%	2%	-16%	-27%
CC1(C(=O)Nc2nc3ccc(S(C)(=O)=O)cc3s2)CC1(Cl)Cl (stereo not drawn)	?	.	.	.	17%	.	-19%	?
CCn1c(CNc2ccc(C(=O)O)cc2)nc2ccccc21	16%	-8%	6%	4.5%	.	.	-5%	15%
c1ccc(-c2nc(-c3ccccn3)nc(-c3ccccn3)n2)nc1	-1%	.	-2%	.	-19%	1%	2%	-6%
Cc1ccccc1OCC(=O)Nc1ccc2nc(SCC(=O)N3CCCC3)sc2c1	?	13%	.	-6.0%	-22%	.	.	11%[46.1 µM]
Cc1nn(-c2ccccc2)c2c1C1(C(=O)N(C(C)C)c3ccccc31)C(C#N)=C(N)O2 (stereo not drawn)	2%	25%	-103%	-2.8%	-15%	-11%	-9%	-6%
Cc1c(C(c2ccc(F)cc2)c2c(C)n(C)n(-c3ccccc3)c2=O)c(=O)n(-c2ccccc2)n1C	.	.	7%	.	1%	-3%	-1%	.
CCCCc1nn2c(=O)cc(COC(=O)C(C)Oc3ccccc3)nc2s1 (stereo not drawn)	.	4%	.	-3.3%	-19%	.	.	5%[46.1 µM]
O=C(Cn1cccc1)N1CCN(c2ccc(F)cc2)CC1	.	1%	-1%	0.6%	-4%	-6%	2%	.
CC(C)c1ncc(C(O)c2ccccc2)n1C (stereo not drawn)	?	.	-2%	.	-12%	1%	-4%	13%
O=C(CN1C(=O)C2C3C=CC(C4CC34)C2C1=O)OCC(=O)c1ccccc1 (stereo not drawn)	6%	8%	-15%	-0.9%	-2%	-11%	8%	-4%
COc1cc(NC(=O)CCS(=O)(=O)c2nc(-c3cccs3)cc(C(F)(F)F)n2)cc(OC)c1OC	?	-5%	.	-7.1%	25µM*	-5%	.	?
Cc1ccccc1C(=O)Oc1ccccc1N1C(=O)C2CC=CCC2C1=O (stereo not drawn)	-2%	-7%	-5%	0.4%	-9%	19%	2%	-5%
O=S(=O)(c1ccc(NC(=S)NN=Cc2ccccc2O)cc1)N1CCCCC1	?	.	.	.	-24%	.	0%	6.3µM*
COCCN(CC(=O)Nc1cccc(C)c1C)C(=O)c1oc2c(Cl)cccc2c1C	-18%	.	.	.	-22%	-1%	11%	-24%
O=[N+]([O-])c1ccc(NN=Cc2ccco2)nc1	?	.	.	.	31%[activator]	.	11%	-1%[46.1 µM]
O=C(CN1C(=O)NC2(CCCCC2)C1=O)Nc1nc2c(F)cc(F)cc2s1	?	.	.	.	-11%	-1%	13%	24%[46.1 µM]
CC(C)OC(=O)c1c2c(n3ccccc13)C(=O)c1ccccc1C2=O	20%[46.1 µM]	?	8%	-5.8%	?	-6%	-12%	9%
CCN(CC)C(=O)c1sc(NC(=O)Cc2ccc(OC)cc2)c(C#N)c1C	-4%	5%	8%	2.8%	-17%	9%	-4%	?
CN1CCN(S(=O)(=O)c2ccc(NC(=O)c3csc4ccccc34)cc2)CC1	0%	-8%	-6%	-9.5%	6%	-1%	10%	14%
NC(=O)c1c(NC(=O)CSc2nnc(-c3ccco3)n2-c2ccccc2)sc2c1CCC2	-18%&-18%	-6%	1.4µM*	-26%	?	9%	62%	-1%
CCOC(=O)c1ccc(N2C(=O)c3n[nH]c(-c4ccco4)c3C2c2ccc(O)cc2)cc1 (stereo not drawn)	11µM*	?	.	-20%	?	.	.	?
CCc1noc(C)c1C(=O)Nc1cc(S(=O)(=O)N(CC)CC)ccc1N1CCOCC1	-3%	.	.	.	-8%	-4%	5%	-18%
Cc1ccc(Nc2ccc(C(=O)O)cc2N)cc1	15%	-5%	5%	-0.4%	0%	-9%	7%	?
COC(=O)/C=c1/s/c(=C(\C#N)C(=O)NCc2ccco2)n(-c2ccccc2)c1=O	-4%	?	21%	-3.6%	-19%	1%	18%	0%
COc1ccc(CCNC(=O)CNS(=O)(=O)c2ccc(N(C)C)c([N+](=O)[O-])c2)cc1OC	0%	.	1%	.	-4%	-1%	-18%	.
CCOc1cc(-c2nc3c(C)cccn3c2NCC2CCCO2)ccc1O (stereo not drawn)	-6%	-20%	-10%	-19%	0%	-1%	-18%	-12%
COc1ccc2ccccc2c1CN1CCN(Cc2ccccc2)CC1	?	2%	-4%	-1.3%	.	-7%	8%	?
CC(=O)Nc1ccccc1C(=O)N1CCN(Cc2ccc3c(c2)OCO3)CC1	.	.	7%	.	-10%	0%	-1%	.
COc1ccccc1NC(=O)COC(=O)c1cn(C)c2ccccc12	-11%	.	.	.	-13%	2%	0%	-1%
O=C(O)CCCN1C(=O)/C(=C/c2cn(-c3ccccc3)nc2-c2cccs2)SC1=S	5%[46.1 µM]	.	.	.	-18%	-1%	3%	-28%
COc1cc2c(cc1OC)CN(C(=O)c1ccco1)CC2	1%	.	.	.	-9%	-5%	9%	-2%
CCc1ccc(S(=O)(=O)c2ccc(-n3nc(C)cc3N)cc2)cc1	-16%[46.1 µM]	.	.	.	-8%	-1%	-2%	6%[46.1 µM]
COc1ccc(NS(=O)(=O)c2ccc(N3CCCC3)c(NC(=S)Nc3ccc(SC(F)F)cc3)c2)cc1	?	?	8.9µM*	-11%	-14%	-26%	-3%	?
COc1ccc(C(C)=O)cc1COc1ccc([N+](=O)[O-])c(C)c1	-29%[46.1 µM]	.	.	.	-25%	-1%	-4%	-24%

Compound profiles, from the list above:
CCOc1cc(-c2nc3c(C)cccn3c2NCC2CCCO2)ccc1O (stereo not drawn) in the list: Marburg entry inh: -6%; Cruzain noTriton: -20%; NS1 function inh: -10%; Cruzain Triton: -19%; 2A StopGo: 0%; SARS PLP yeast: -1%; RE007 growth inh: -18%; Lassa entry inh: -12%
CN1CCN(S(=O)(=O)c2ccc(NC(=O)c3csc4ccccc34)cc2)CC1 in the list: Marburg entry inh: 0%; Cruzain noTriton: -8%; NS1 function inh: -6%; Cruzain Triton: -9.5%; 2A StopGo: 6%; SARS PLP yeast: -1%; RE007 growth inh: 10%; Lassa entry inh: 14%

(listing goes on)
SMILES	Marburg entry inh	Cruzain noTriton	NS1 function inh	Cruzain Triton	2A StopGo	SARS PLP yeast	RE007 growth inh	Lassa entry inh
CCN1CCN(c2cc(C)c3cc(NC(=O)c4ccncc4)ccc3n2)CC1	.	-18%	-18%	-0.1%	-18%	-10%	-9%	.
CCc1ccc2oc(=O)cc(CN3CCCCC3)c2c1	-1%[46.1 µM]	.	0%	.	-11%	1%	0%	17%[46.1 µM]
C=CCn1c(SCC(C)=O)nnc1-c1cc(-c2ccccc2)sc1N	20%	?	?	-13%	?	-12%	-11%	18%
COC(=O)c1cc(S(=O)(=O)Nc2cc(OC)cc(OC)c2)c[nH]1	.	.	-4%	.	-4%	-3%	0%	.
O=C(CSc1nnc(CN2CCOCC2)n1-c1ccc(Cl)cc1)N1CCc2ccccc21	16%&16%	.	-15%	.	-29%	.	4%	-5%
Cc1ccc(C)c(OCC(=O)Nc2nc3ccc([N+](=O)[O-])cc3s2)c1	-3%	?	2%	-0.5%	?	0%	4%	4%
Cc1noc(C)c1C(=O)N1CCc2ccccc21	3%	-2%	8%	-5.2%	0%	0%	-11%	17%[14.3 µM]
COc1ccccc1NC(=O)Cn1nnc(C(=O)NCc2cccs2)c1N	-28%[46.1 µM]	-26%	-3%	0.3%	-15%&-7%	2%	-9%	-9%[46.1 µM]
O=C(CC(=O)c1ccccc1)Nc1ccc([N+](=O)[O-])cc1	?	.	.	.	37%[activator]	.	-2%	-25%[46.1 µM]
COc1ccccc1Cc1nc2ccccc2nc1SCC(=O)NCc1ccc(C)cc1	.	11%	.	1.5%	2%	.	.	11%[46.1 µM]
COc1nccnc1NS(=O)(=O)c1ccc(NC(=O)c2cccc(C)c2)cc1	?	.	1%	.	-5%	0%	11%	3%
CCCCCCNS(=O)(=O)c1ccccc1Br	.	.	-37%	.	19%	-2%	-6%	.
CCCCC1(Cc2ccc(OC)c([N+](=O)[O-])c2)C(=O)N(c2ccccc2)N(c2ccccc2)C1=O	14µM*	1%	9%	-25%	?	-14%	0%	?
O=C(Cc1cccs1)N1CCN(S(=O)(=O)c2ccc(Br)cc2)CC1	17%	5%	-37%	-0.9%	-16%	2%	4%	-25%
O=C(NC(=O)N1CCN(c2ccccc2F)CC1)c1ccccc1	-1%	9%	-7%	4.5%	.	-5%	12%	-3%
CCC1(c2ccccc2)NC(=O)N(CC(=O)Nc2ccc(N3CCCC3)cc2C)C1=O (stereo not drawn)	-19%	.	.	.	-18%	-17%	-2%	?
CC(=O)N/C(=C\c1ccccc1)C(=O)OCC(=O)N(C)C1CCCCC1	?	-3%	9%	-6.9%	-12%	-9%	0%	-18%
O=C(N/N=C/c1ccc(O)c(O)c1)NC12CC3CC(CC(C3)C1)C2	?	.	1%	.	-25%	-1%	4%	?
Cc1ccc2c(=O)cc(C(=O)Nc3c(C(=O)Nc4cccc(Cl)c4)oc4ccccc34)oc2c1	-1%[46.1 µM]	-8%	.	0.8%	-10%	.	.	-1%[46.1 µM]
CCCCC1SC(N)=NC1=O (stereo not drawn)	-3%[46.1 µM]	.	.	.	-7%	.	11%	2%[46.1 µM]
COc1cccc(NC(=O)[C@H](CC(C)C)NC(=O)[C@@H]2Cc3ccccc3CN2)c1	.	.	7%	.	-10%	1%	8%	.

Screens from PubChem.
